Compound activity from PubChem BioAssay.
YopH PTP inh: YopH tyrosine phosphatase inhibitors, primary screen, biochemical, fluorescence Ex485/Em525 | inhibition, %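 (about 10 µM by stock and volumes)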 | 0.16% of 140,000 active;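 active = inhibition of 50% or more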;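 note: controls were vehicle for no effect and minimum signal wells for full effect; inactives centre near -20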
Mtb growth: M. tuberculosis H37Rv growth inhibitors, H37Rv strain (AID 1626). inhibition, % at 10 µM; hits with a dose series show IC50 in µM. M. tuberculosis H37Rv growth inhibition; higher % means a stronger effect. 0.95% of 220,000 active;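 active = confirmed in a dose series; inconclusive = inhibition above 80% but not taken into the dose series; inactive = below 80% or under 30% at every dose of the series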;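 note: bacteria incubated seven days before Alamar blue readout; 0% = bacteria only wells and 100% = bacteria with antibiotic wells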
Mtb betalactam: beta-lactam sensitization of Mtb H37Rv, H37Rv; inhibition, % at 25 µM; AID 434955, 2010; M. tuberculosis H37Rv growth with meropenem, percent inhibition; hits of this screen are not shown here; 0.27% of 330,000 active;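 active = about 74% or more and at least 40 points above the plate without the antibiotic, then above 30% in a dose series; inconclusive = first-round hits that could not be retested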;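 note: growth measured after seven days incubation then overnight dye step; 0% = bacteria only wells and 100% = bacteria with antibiotic; twin plates without the antibiotic show which effects depend on it; some results filed as inactive read as strong as hits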
Arbovirus inh: antivirals against arbovirus infection, primary screen, cell-based, full library, 10K replicate subset. inhibition, % at 10 µM. 0.37% of 200,000 active. AID 1251, 2008. arbovirus infection cell-based antiviral screen;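 active = inhibition from about 30%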;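 note: bluetongue infection of BSR cells; cell survival read as ATP light after 72 h; 0% = infected wells without compound and 100% = uninfected wells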
RecA splice inh: Mtb RecA intein splicing inhibitors, primary screen, biochemical, fluorescence, HTS. Protein RecA (Mycobacterium tuberculosis (strain ATCC 25618 / H37Rv)), P9WHJ3. cell-free RecA intein splicing. inhibition, %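 (about 9 µM by stock and volumes)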. 0.75% of 290,000 active. AID 2221, 2009; in the data active = inhibition above about 30%; inconclusive = no clear call, values can overlap the other calls;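 note: 0% = vehicle wells and 100% = reference inhibitor control wells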
Target sequence (P9WHJ3 whole entry, looked up, canonical isoform): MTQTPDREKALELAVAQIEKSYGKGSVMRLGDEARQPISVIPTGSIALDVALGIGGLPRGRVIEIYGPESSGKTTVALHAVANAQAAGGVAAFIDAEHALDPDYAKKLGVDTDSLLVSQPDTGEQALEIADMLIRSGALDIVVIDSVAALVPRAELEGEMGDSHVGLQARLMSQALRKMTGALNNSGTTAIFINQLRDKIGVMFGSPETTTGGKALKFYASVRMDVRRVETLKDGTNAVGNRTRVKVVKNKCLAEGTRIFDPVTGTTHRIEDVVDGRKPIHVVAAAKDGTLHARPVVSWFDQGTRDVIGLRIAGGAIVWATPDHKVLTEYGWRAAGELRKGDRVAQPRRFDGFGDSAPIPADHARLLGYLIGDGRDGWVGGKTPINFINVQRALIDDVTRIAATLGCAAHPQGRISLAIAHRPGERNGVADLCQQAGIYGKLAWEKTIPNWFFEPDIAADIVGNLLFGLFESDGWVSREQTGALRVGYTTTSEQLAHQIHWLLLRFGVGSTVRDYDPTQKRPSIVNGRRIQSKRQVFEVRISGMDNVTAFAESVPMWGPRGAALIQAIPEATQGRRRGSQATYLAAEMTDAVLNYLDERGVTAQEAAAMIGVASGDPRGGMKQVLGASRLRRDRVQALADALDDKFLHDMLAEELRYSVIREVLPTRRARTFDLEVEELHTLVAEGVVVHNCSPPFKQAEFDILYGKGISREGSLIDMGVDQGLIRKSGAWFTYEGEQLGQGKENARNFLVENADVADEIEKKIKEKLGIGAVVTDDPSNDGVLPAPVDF
Arbovirus inh repeat: further read-out of Arbovirus inh, marked with its call; inhibition, %; measured here: 10K subset replicate screen; many hits read low in the repeat;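 first of two repeat runs on a subset; 0% = infected and 100% = uninfected wells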
An asterisk follows results filed as active; ? = inconclusive; . = no result given. A portion of the library; rates above refer to the full screens.

SMILES	YopH PTP inh	Mtb growth	Mtb betalactam	Arbovirus inh	RecA splice inh	others
O=C(O)CCCCCNS(=O)(=O)/C=C/c1ccccc1	.	-7%	0	1	1.1
Clc1ccc(N/N=C/c2cccnc2)cc1	-25	?	97	-29	1.0
COC(=O)CC(c1ccc(F)cc1)n1c(C)ccc1C (stereo not drawn)	.	0%	-2	-5	2.0
CCC1(C)Cc2ccccc2-c2nc(NCCCO)[nH]c(=O)c21 (stereo not drawn)	.	-4%	-2	.	1.6
Cc1nc(-c2cccc(NC(=O)c3cc4cc(Br)ccc4oc3=O)c2)cs1	1	-10%	-4	3	-0.9
O=C(N/C=C/c1ccco1)Nc1cccc(Cl)c1	.	-2%	67	.	4.9
CCC(C)[C@H](NC(=O)NCc1ccco1)C(=O)OC (stereo partly drawn)	.	-3%	14	.	-0.7
CNC(=O)N(O)C1N(/N=C/c2cccs2)C(=S)SC1(C)C (stereo not drawn)	.	-3%	-8	.	-5.2
CCc1cc2ccccc2nc1Cl	.	-3%	-3	0	3.5
CCOC(=O)c1c(NC(=O)CC2Nc3ccccc3NC2=O)sc(C)c1C (stereo not drawn)	-21	1%	21	-2	-3.4
O=C(O)c1ccccc1CSC1=NCCS1	.	3%	-3	0	-0.6
O=P(COCCOCP(=O)(c1ccccc1)c1ccccc1)(c1ccccc1)c1ccccc1	-11	-3%	-14	6	0.1
COC(=O)c1sccc1NC(=O)Nc1cccc(OC)c1	.	.	-19	.	1.1
COc1cccc(CN2CCC(Oc3ccc(C(=O)NCc4ccccn4)cc3)CC2)c1	.	.	-7	.	-0.8
CC(NC(=O)c1ccccc1)c1nc2ccccc2n1Cc1ccccc1F (stereo not drawn)	-2	.	-13	-2	0.2

Overlap with the part before: five compounds; new compounds follow.
SMILES	YopH PTP inh	Mtb growth	Mtb betalactam	Arbovirus inh	RecA splice inh	others
O=C(O)c1ccccc1CSC1=NCCS1	.	3%	-3	0	-0.6
O=P(COCCOCP(=O)(c1ccccc1)c1ccccc1)(c1ccccc1)c1ccccc1	-11	-3%	-14	6	0.1
COC(=O)c1sccc1NC(=O)Nc1cccc(OC)c1	.	.	-19	.	1.1
COc1cccc(CN2CCC(Oc3ccc(C(=O)NCc4ccccn4)cc3)CC2)c1	.	.	-7	.	-0.8
CC(NC(=O)c1ccccc1)c1nc2ccccc2n1Cc1ccccc1F (stereo not drawn)	-2	.	-13	-2	0.2
CC12CN3CC(C)(CN(C1)C3c1ccc(Br)cc1O)C2 (stereo not drawn)	-30	-4%	-14	3	-3.0
CCCCCOc1ccc(N2C(=O)CC(N(O)c3ccccc3)C2=O)cc1 (stereo not drawn)	26	67%	99	10	-1.2
Cc1cc(C)nc(SCCC(=O)N2CCOCC2)n1	4	-4%	9	-1	5.0
O=C(Nc1ccc2c(c1)OCO2)C1CCN(Cc2cc3c(cc2O)OCO3)CC1	.	.	-10	.	-3.4
O=C(O)C1C2C=CC(C2)C1C(=O)Nc1nccs1 (stereo not drawn)	2	-6%	5	-1	-4.3
CC(C)=CC(=O)OCC(=O)Nc1cccc([N+](=O)[O-])c1	-23	4%	-1	-5	1.3
Cc1cc(NC(=O)CN2C(=O)/C(=C/c3cccc(Br)c3)SC2=S)no1	.	11%	4	12	-3.6
CCOC(=O)c1cnc(Nc2nc3ccccc3o2)nc1CSc1nnc(C)s1	-42	14%	?	.	2.5
Cc1cc(=O)n2nc(N3CCC(C(=O)N4CCN(C)CC4)CC3)sc2n1	-37	-6%	-14	-2	-3.2
O=C(Cn1nnc(-c2ccccc2Cl)n1)NCc1ccc2c(c1)OCO2	-5	-3%	-5	-10	-1.2
O=C(O)CSc1nc2ccccc2o1	-41	-10%	-1	1	1.5
Cc1ccc(C(=O)N2CCN(c3ccc([N+](=O)[O-])c(NCc4cccnc4)c3)CC2)cc1	6	0%	3	6	4.6
Brc1ccc(CN2CCNCC2)s1	-6	8%	-3	3	3.9
COc1ccc(N(CC(=O)NCc2ccccc2OC)S(=O)(=O)c2c(C)nn(C)c2C)cc1	-46	-9%	5	-2	-3.2	Arbovirus inh repeat=-1
CNC(=O)c1c(NC(NC(=O)c2ccco2)C(=O)c2ccc(Cl)cc2)sc2c1CCCC2 (stereo not drawn)	-5	-5%	12	6	1.4

Compounds shown so far with an aryl methoxy group, in the order listed:
SMILES	YopH PTP inh	Mtb growth	Mtb betalactam	Arbovirus inh	RecA splice inh	others
COC(=O)c1sccc1NC(=O)Nc1cccc(OC)c1	.	.	-19	.	1.1
COc1cccc(CN2CCC(Oc3ccc(C(=O)NCc4ccccn4)cc3)CC2)c1	.	.	-7	.	-0.8
COc1ccc(N(CC(=O)NCc2ccccc2OC)S(=O)(=O)c2c(C)nn(C)c2C)cc1	-46	-9%	5	-2	-3.2	Arbovirus inh repeat=-1

(list continues)
SMILES	YopH PTP inh	Mtb growth	Mtb betalactam	Arbovirus inh	RecA splice inh	others
CC12CCC(=O)N1C(C(=O)NCCN1C(=O)S/C(=C\c3ccc(F)cc3)C1=O)CS2 (stereo not drawn)	.	.	1	.	2.5
CONC(=O)C1CCN(C(=O)OCc2ccccc2)CC1	-19	1%	-7	0	-1.0
CCC(=O)Nc1ccc(-c2csc(C)n2)cc1	-19	46%	30	-2	-0.2
CC1Oc2ccccc2N(CC(=O)Nc2ccccc2F)C1=O (stereo not drawn)	.	.	3	.	-0.3
Cc1cc(C)n(-c2nc3nonc3nc2-n2nc(C)cc2C)n1	-215	7%	4	-2	-0.3
CN(C)CC#CCn1c2ccccc2c2ccccc21	.	-3%	-6	.	1.3
CCS(=O)(=O)N1CCCC(C(=O)NCCc2ccccc2)C1 (stereo not drawn)	-10	-2%	-1	-1	1.7
CC(C)Cc1nnc(NC(=O)c2cc([N+](=O)[O-])ccc2N2CCOCC2)s1	.	.	-15	.	-1.3
Cc1cc(C)cc(NC(=O)CCCSc2nc3ccccc3[nH]2)c1	-35	45%	9	-4	3.2
Cc1ccccc1Cn1cc(NC(=O)c2noc(C(C)C)c2[N+](=O)[O-])cn1	.	.	97	.	-2.4
Cc1sc(=NC(=O)c2ccco2)n(C)c1-c1ccc(F)cc1	-38	-5%	23	-3	-1.7
COc1ccc(NS(=O)(=O)c2cccc(C(=O)N3CCCC3)c2)cc1	.	.	-6	.	-2.7
COc1ccc(S(=O)(=O)Nc2ccccc2C(=O)NC(C)C)cc1OC	-12	-9%	-6	5	-2.6
COc1ccc(N2CCN(c3ccc(NC(=O)C4CCCCC4)cc3C#N)CC2)cc1	-29	2%	2	5	-0.3
COc1ccc(S(=O)(=O)N2CCOC2CNC(=O)C(=O)NCCCn2ccnc2)cc1OC (stereo not drawn)	-17	0%	-1	-3	0.3
COCCNC(=O)CC(c1ccccc1)c1ccccc1	-9	-6%	-14	-1	0.5
O=C(/C=C/c1c(F)cccc1Cl)N1CCOCC1	.	.	2	.	2.5
O=[N+]([O-])c1ccccc1/C=N\N1CCN(Cc2ccccc2Cl)CC1	.	.	8	.	0.4
Cn1c(C(=O)OC(C(=O)NC2CCCC2)c2cccnc2)cc2sccc21 (stereo not drawn)	-37	0%	-1	-20	0.7
Brc1ccccc1C1Nc2cccc3cccc(c23)N1	.	.	14	.	-1.7
COc1ccc(N(C)S(=O)(=O)c2cccc(C(=O)NC3CCC(C)CC3)c2)cc1 (stereo not drawn)	.	4%	-3	-1	7.0
O=C(Cn1cc[n+](Cc2ccccc2)c1)c1ccc([N+](=O)[O-])cc1	.	14%	2	2	-0.9
O=C(Nc1ccc(S(=O)(=O)Nc2cnc3ccccc3n2)cc1)c1cc(F)c(F)cc1Cl	.	.	2	.	1.6
COc1ccc(OC)c(NC(=O)CSc2nnc(-c3cnccn3)n2C)c1	.	.	-5	.	-1.1
CCN(C(=O)c1cc2cc(OC)ccc2oc1=O)c1ccccc1	9	-6%	-6	9	-1.0
CCC(C(=O)Nc1ccc2[nH]ncc2c1)c1ccccc1 (stereo not drawn)	.	.	-3	.	6.8
CCN(CC(=O)Nc1ccccc1C(F)(F)F)C(=O)c1cc(S(=O)(=O)N2CCCCCC2)ccc1OC	.	.	-7	.	-4.8
O=C(CC12CC3CC(CC(C3)C1)C2)NC1CC1	.	.	3	.	0.0
COc1ccc(-c2cc(C(=O)NC3CCCCC3)no2)cc1OC	.	.	3	.	17
CCc1ccccc1NC(=O)c1ccc(S(=O)(=O)N2CCCC2)cc1	.	.	0	.	2.9
O=C(N/N=C/c1ccccn1)c1cc(Br)ccc1O	.	.	64	.	1.3
Cc1ccc(NC(=O)c2cc3c(s2)CCC3)cc1S(=O)(=O)N1CCOCC1	11	-6%	-19	2	4.2
CCN(CC)c1ccc(/C=N/n2c(C)cc(C)cc2=O)cc1	-33	-3%	7	-4	-0.5	Arbovirus inh repeat=-4
CCCCCn1c(=NC(=O)c2cccnc2)c(C#N)cc2c(=O)n3cccc(C)c3nc21	.	.	-2	.	-0.5
O=C1C(Cl)=C(NCCCN2CCOCC2)C(=O)N1CCc1ccccc1	11	.	1	4	3.2
CC1=NN(C(=O)c2csc(C)c2C)C(O)(C(F)(F)F)C1 (stereo not drawn)	-33	2%	54	-10	-0.4
NC(=O)CSc1nc(-c2ccccc2)nc2ccccc12	.	.	6	.	1.3
CCOC(=O)C1CCN(S(=O)(=O)c2ccc3c(c2)CCN3C(C)=O)CC1	.	.	-6	.	-4.4
Cc1ccc(S(=O)(=O)Nc2ccc(N3CCOCC3)cc2)cc1	-17	-6%	-9	0	1.3
O=C1CN(C(=O)c2ccc(F)cc2)c2ccccc2N1	.	.	2	.	-2.0
COc1ccc(CN2CCN(Cc3c[nH]c4ccccc34)CC2CCO)cc1C (stereo not drawn)	.	.	7	.	2.0
Cc1cccc(NC(=O)COc2cccc3c2CCN(C)C3=O)c1C	.	2%	38	6	-2.9
c1cncc(CSc2nnc(-c3cccnc3)n2Cc2ccco2)c1	-45	-1%	.	3	-1.3
c1ccc(-c2cnnc(SCc3cn4cccnc4n3)n2)cc1	5	-8%	-18	-2	-1.8
CCc1ccc(Nc2ncc3c(n2)CC(C)CC3=O)cc1 (stereo not drawn)	.	0%	-5	-4	-1.9
CC1(c2nnc(Cc3ccccc3)o2)CC(c2cccnc2)=NO1 (stereo not drawn)	.	-9%	-1	.	-0.7
CO/N=C/c1ccc(Sc2ccccc2N)c([N+](=O)[O-])c1	-14	5%	-2	-8	11
CCCCOC(=O)N1CCOCCOCCN(C(=O)OCCCC)CCOCCOCC1	-12	3%	4	6	0.0
O=[N+]([O-])c1cccc(-c2nnc(C34CC5CC(CC(C5)C3)C4)o2)c1	-18	1%	0	13	-11
O=C(CCCCCn1c(=S)[nH]c2ccccc2c1=O)N1CCC2(CC1)OCCO2	-23	-3%	-1	-10	-0.7
CC(C)(C)C1=CC(O)(c2ccccc2)C=C(C(C)(C)C)C1=O	.	.	19	.	15
Cc1cccc(OCC(=O)NCCNC(=O)c2ccncc2)c1	.	.	-4	.	-3.4
O=C(NC1CCCCC1)C(c1ccco1)N(C(=O)c1csnn1)c1cccc(F)c1 (stereo not drawn)	.	.	-1	.	-0.2
COC(=O)C1=C(C)N(C)C(=O)NC1c1cc(Cl)cc(Cl)c1OC (stereo not drawn)	1	-2%	-2	6	2.7
COC(=O)C1=C(CN2CCc3ccccc32)NC(=O)NC1c1cc(C)ccc1C (stereo not drawn)	-30	.	3	2	7.0
CC(NC(=O)c1cccs1)C(c1cccs1)N1CCN(Cc2ccccc2)CC1 (stereo not drawn)	9	1%	11	11	1.0
COc1cc(CNCCCCO)ccc1OCc1ccccc1F	.	1%	0	-7	-0.9
c1coc(-c2cc(C3CCNCC3)[nH]n2)c1	.	-6%	-3	5	0.8
CC(C)c1nnc(SCC(=O)N2CCc3ccccc32)n1N	.	5%	2	5	-2.3
N#CCC(=O)N/N=C/c1ccccc1Cl	.	-7%	11	-3	-0.6
Later entries:
SMILES	YopH PTP inh	Mtb growth	Mtb betalactam	Arbovirus inh	RecA splice inh	others
COc1ccc(N2CCN(C(=O)CCc3ccc(S(=O)(=O)NCC(C)C)cc3)CC2)cc1	-31	2%	-7	13	-3.0
COc1ccc(-c2oc3ccc(N4CCOCC4)cc3c2C#CC2(O)CCCCC2)cc1	.	89%	38	.	-1.2
Cc1ccc(NC(=O)CCSc2nnc3ccccn23)cc1	-5	-6%	3	10	-0.3
CC(=O)Nc1nc2ccccc2[nH]1	.	-9%	-3	-3	-0.4
COc1cc2c(cc1OC)CN(C(=S)Nc1ccccc1Cl)CC2	.	-3%	3	7	1.5
Cc1cc(C(=O)NP(=O)(N2CCOCC2)N2CCOCC2)c(C)n1-c1ccc(Br)cc1	-28	5%	0	4	3.1
